UCH37 inh: inhibitors of human UCH37 deubiquitinase, primary screen, biochemical, Ub-AMC cleavage, fluorescence; inhibition, % (test concentration not listed); Ubiquitin carboxyl-terminal hydrolase isozyme L5 (Homo sapiens), Q9Y5K5; 330,000 tested, 0.33% active; AID 588478, 2011; purified proteasome/UCH37;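 active = mean of two replicates above 20%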;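 also: 0% = compound-free wells with enzyme and 100% = wells lacking proteasome; stock transfer was 100 nL into about 20 µL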
Target sequence (Q9Y5K5 whole entry, looked up): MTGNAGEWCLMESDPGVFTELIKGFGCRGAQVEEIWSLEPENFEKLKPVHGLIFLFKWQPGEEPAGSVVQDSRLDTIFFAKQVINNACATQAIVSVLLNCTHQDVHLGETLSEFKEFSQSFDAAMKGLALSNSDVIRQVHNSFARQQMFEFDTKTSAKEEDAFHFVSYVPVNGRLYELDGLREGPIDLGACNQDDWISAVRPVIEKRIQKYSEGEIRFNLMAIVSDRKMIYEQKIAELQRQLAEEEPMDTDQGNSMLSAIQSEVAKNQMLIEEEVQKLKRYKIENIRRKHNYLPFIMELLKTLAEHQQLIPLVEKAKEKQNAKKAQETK
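Material: human UCH37 enzyme supplied as purified proteasome complex / Amount: 0.15 nM proteasome as dispensed / Buffer or medium: pH 7.4 Tris-HCl (50 mM) with ovalbumin, ATP-MgCl2, DTT / Times: preincubation 30 min, reaction 25 min, room temperature / Technique: AMC fluorescence from Ub-AMC cleavage, excitation 355 nm, emission 460 nm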
HNF4A DNA FP: change in binding of human HNF4A to DNA, primary screen, biochemical, fluorescence polarization, FITC-DNA; Hepatocyte nuclear factor 4-alpha (Homo sapiens), P41235; AID 1224865, 2016; 360,000 tested, 0.3% active; activity change, % at 10 µM; 1 h; in the data active = activity change above about 30%, passing the limit was not always enough;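 also: controls were the assay level and a saturating level of protein; the project sought stronger binding though the title names inhibitors; some compounds called inactive have numbers as strong as hits; positive values seem to mean higher polarization but the record does not say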
Target sequence (P41235 whole entry, looked up): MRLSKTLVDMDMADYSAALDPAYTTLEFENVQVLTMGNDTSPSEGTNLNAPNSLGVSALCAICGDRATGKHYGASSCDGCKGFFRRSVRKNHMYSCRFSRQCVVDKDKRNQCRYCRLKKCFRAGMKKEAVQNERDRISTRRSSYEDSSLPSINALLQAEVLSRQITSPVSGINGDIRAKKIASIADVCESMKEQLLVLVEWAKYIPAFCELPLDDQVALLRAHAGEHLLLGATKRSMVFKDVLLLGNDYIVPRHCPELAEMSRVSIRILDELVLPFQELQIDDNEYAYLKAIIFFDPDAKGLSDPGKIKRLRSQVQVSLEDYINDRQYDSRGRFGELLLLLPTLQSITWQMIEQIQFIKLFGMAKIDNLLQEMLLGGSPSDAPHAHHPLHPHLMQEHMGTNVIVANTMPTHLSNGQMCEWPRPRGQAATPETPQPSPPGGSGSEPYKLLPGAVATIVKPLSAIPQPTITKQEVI
Ecoli growth: E. coli growth inhibition, primary screen, OD600; 330,000 tested, 0.21% active; OD600 absorbance (no concentration beside the values); Escherichia coli growth, 23 h; active compounds read low;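 active = OD600 absorbance below the run mean of sample wells minus 3.6 SD, in any replicate, cut at about 0.56 in these data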;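 also: stock transfer was 300 nL into about 60 µL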
A1 inh: caspase 3/7 activation in MEF A1-2A-BIM cells, primary screen, A1 inhibitor project, cell-based, luminescence, HTS | Caspase-Glo 3/7 luminescence, 3 h; percent of clofoctol response, vehicle zero | caspase activation, % (test concentration not listed) | 330,000 tested, 0.066% active | AID 2462, 2010;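 active = over half of replicate activation scores above 10%, or exactly half above 10 with the replicate mean above 10; inconclusive = replicate mean below 10 yet half the replicates above 10; inactive = over half of replicates below 10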;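 also: wells of about 30 µL received 50 nL stock; many hits fall short of the cut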
Vif A3G: inhibitors of Vif binding to APOBEC3G peptide, primary screen, biochemical, TR-FRET, GST-Vif 1-94, biotin-A3G peptide, dose response retest (AID 1117319); Virion infectivity factor (Human immunodeficiency virus type 1 group M subtype B (isolate …; TR-FRET GST-Vif / biotin-A3G peptide binding; higher % means a stronger effect; test concentration not given here; strong numbers were not always called active; inhibition, %, or IC50 in µM where a hit was titrated; 260,000 tested, 0.57% active;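 active = above the screen mean plus three standard deviations and confirmed in dose response; inconclusive = results disagree or hit not tested in dose response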;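 also: Vif residues 1-94 fused to GST binding biotinylated APOBEC3G peptide 110-148; 0% = full assay without inhibitor and 100% = GST in place of GST-Vif; retest series ran down from 100 µM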
Beta2AR agonist: beta2AR agonists driving receptor internalization, primary screen, cell-based, FAP fluorogen, flow cytometry; Beta-2 adrenergic receptor (Homo sapiens), P07550; Am2.2-beta2AR cells; reference of the scale not given here; response, % (test concentration not listed); 340,000 tested, 0.43% active;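 active = response above a set limit, near 3 SD of response in nonfluorescent compounds, cut at about 42% in these data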;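 also: stock transfer was 100 nL into about 11 µL; a reference agonist was the positive control; negative values mostly stem from fluorescent compounds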
LANA-H2B inh: blockers of LANA interaction with H2A/H2B – biochemical, FP readout, HTS, primary screen. Protein LANA1 (Human herpesvirus 8 type P (isolate GK18)), Q9QR71. cell-free LANA-H2A/H2B peptide, fluorescence polarization. inhibition, % (test concentration not listed). 320,000 tested, 0.6% active. AID 2629, 2010; in the data active = inhibition mostly above about 10%, no sharp cut-off; inactive = mostly below about 6.7%;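 also: stock transfer was 7.5 nL into about 10 µL; 0% = median of vehicle wells and 100% = median of positive control wells; one replicate is shown; the record names a cut of 25% in any replicate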
* = called active by the depositor; ? = inconclusive; . = no result given.

Screens in order: UCH37 inh, HNF4A DNA FP, Ecoli growth, A1 inh, Vif A3G, Beta2AR agonist, LANA-H2B inh
O=C(COC(=O)c1ccccc1-c1nc2ccccc2s1)Nc1ccccc1C(F)(F)F
→ 5.5, 3.1, 0.716, 0.7, ., 1.0, 1.0
Oc1cncc(-c2cccnc2)c1
→ 0.9, 0.6, 0.642, -1.7, ., -7.0, -0.9
COc1ccc(OC)c(CCNC(=O)c2sc3nc4n(c(=O)c3c2C)CCC4)c1
→ 1.4, 2.7, 0.678, 0.1, ., 13.8, -0.4
CC1CCCN(CC(O)COCc2ccccc2)C1 (stereo not given)
→ 1.6, -3.1, 0.702, 0.7, 6.4%, 3.1, 5.4
COC(=O)[C@@H](NC(=O)Nc1cc(Cl)ccc1C)C(C)C
→ 0.7, 3.0, 0.685, -0.1, ?, -1.4, -8.9
OC(COCC1CC=CCC1)Cn1cnc2ccccc21 (stereo not given)
→ 0.8, 0.8, 0.625, 0.0, 1.0%, 16.2, 1.5
CSc1cccc(NC(=O)NNC(=O)C2CCN(S(=O)(=O)N(C)C)CC2)c1
→ 2.7, -2.1, 0.622, -0.1, ., -1.6, 4.4
O=C(C(c1ccccc1)c1ccccc1)N(Cc1ccco1)C1CCS(=O)(=O)C1 (stereo not given)
→ 3.3, -1.4, 0.732, -0.2, 0.7%, 1.3, 0.1
Cc1ccc(/C=N/NC(=O)CNC(=O)c2ccc(S(=O)(=O)N(C)C)cc2)o1
→ ., 0.5, ., 0.3, 6.5%, 9.1, -3.0
COC(=O)c1nnn(-c2nonc2N)c1CSc1nc2ccccc2s1
→ 4.5, -0.4, 0.758, 0.2, 20.0%, 5.8, 4.5
CC(=O)Nc1cccc(OCCCOc2cccc([N+](=O)[O-])c2)c1
→ ., -4.2, ., ., -3.5%, -14.3, .
CCN1CCN(c2c(/C=C3\SC(=S)N(Cc4ccco4)C3=O)c(C)c(C#N)c(=O)n2C)CC1
→ 2.9, 136.7, 0.614, 1.2, ?, -450.1, -7.5
Cc1cccc2sc(NNC(=O)C3COc4ccccc4O3)nc12 (stereo not given)
→ 3.9, 1.6, 0.698, -0.8, -8.6%, 4.4, -0.1
Nn1c(SCc2cccc(Cl)c2)nnc1-c1ccncc1
→ 2.7, -0.2, 0.65, -2.0, -1.6%, 6.0, -8.3
COc1ccc(CCNC(=O)c2cccc(NC(=O)CC3SC(N4CCCCC4)=NC3=O)c2)cc1OC (stereo not given)
→ -2.2, -0.2, 0.743, 0.6, ., 7.7, -2.7
O=C(CCS(=O)(=O)c1cccc2nonc12)N1CCOCC1
→ 3.8, -1.9, 0.682, 0.2, 4.7%, -0.3, -0.1
CN(C)c1ccc(C2C3C(=O)NC(=O)C3ON2c2ccc(Cl)cc2)cc1 (stereo not given)
→ 2.8, 0.8, 0.745, -0.8, 6.9%, 2.0, 2.3
CCOC(=O)C1CSC(CC(=O)Nc2ccc(Cl)c(Cl)c2)C(=O)N1 (stereo not given)
→ -2.1, 1.6, 0.719, -0.6, 3.8%, 17.5, 1.0
Cn1c(=O)c2c(O)c(Cc3ccccc3)c(=O)n(C)c2n(C)c1=O
→ 2.8, 1.2, 0.668, 0.9, ., 3.1, -0.8
CCOC(=O)C1CCN(S(=O)(=O)c2ccc(Cl)cc2)CC1
→ 0.6, -0.7, 0.601, 0.7, -13.2%, -1.9, 2.6
Cc1ccccc1C(=O)Nc1cccc(C(=O)N/N=C/c2ccccn2)c1
→ ., -2.8, ., -0.1, -3.2%, -2.5, -3.8
Cc1c(C(=O)N(C)CC(=O)Nc2cccc(F)c2)oc2c(Cl)cccc12
→ -0.6, 2.8, 0.656, 1.6, -8.0%, 2.8, 1.1
COc1ccccc1N1CCN(S(=O)(=O)CCNC(=O)c2cccc(F)c2)CC1
→ 0.5, 0.8, 0.694, 1.5, 0.2%, 0.0, 3.1
O=C(NC(=O)c1ccccc1O)c1ccc2c(c1)CCO2
→ 4.0, 2.0, 0.603, -5.5, 13.6%, -2.4, 8.2
COc1cc(/C=C(\C#N)C(=O)NCC2CCCO2)ccc1O (stereo not given)
→ 6.1, 1.1, 0.636, -0.4, ., 4.7, -5.0
Cc1cccc(Nc2nc(N)c(C#N)c(CC#N)c2C#N)c1
→ -38.0, -4.8, 0.689, 0.4, ., -16.8, 0.9
CCCC1=Nc2cc(C(=O)NCCN3CCOCC3)ccc2Sc2ccc(C)cc21
→ 1.3, -1.7, 0.656, -0.5, -8.8%, 0.5, -2.4
Cc1cccc(Cl)c1OCCN1CCCC1
→ 0.5, 2.3, 0.62, -9.4, -0.9%, -3.5, -4.3
Cn1nc(C(=O)Nc2ccc3c(c2)OCCO3)cc1C(=O)O
→ 2.3, -3.2, 0.689, -6.0, -10.2%, 7.6, -2.6
O=c1ccn(Cc2ccccc2)c2ccccc12
→ 5.9, 1.2, 0.666, -0.1, ., -6.1, 4.3

Additional structures.
Screens in order: UCH37 inh, HNF4A DNA FP, Ecoli growth, A1 inh, Vif A3G, Beta2AR agonist, LANA-H2B inh
CC(=O)Nc1ccc2nc(-c3ccccn3)[nH]c2c1
→ -50.8, 0.0, 0.697, -1.1, -0.6%, 1.4, -4.8
CC1C(=O)NN=C1C(=O)N/N=C\C(Br)=C\c1ccccc1 (stereo not given)
→ ., -2.8, ., ., -3.7%, -4.3, .
O=C(NCc1ccco1)C1CCCN(S(=O)(=O)c2cnc[nH]2)C1 (stereo not given)
→ 3.7, 0.9, 0.747, 0.9, ?, -3.7, -2.2
COCc1nc(-c2ccc(-c3ccc(OC)cc3)nc2OC)no1
→ -333.4, 3.8, 0.718, ., -5.5%, -5.4, .
CC(C)C(NC(=O)OCc1ccccc1)C(=O)NCC(=O)OC(C)(C)C (stereo not given)
→ -0.5, 0.8, 0.736, -0.9, 7.3%, -1.3, -0.5
COc1ccccc1Nc1nn2c(=O)c3ccc(C(=O)N4CCCCC4)cc3nc2s1
→ 2.9, -0.9, 0.704, 0.0, ., 12.0, -4.8
CCOC(=O)c1sc2ncnc(N3CCN(CC)CC3)c2c1C
→ -9.7, 2.5, 0.645, 1.1, 11.3%, 7.7, 0.4
CCCCN(C(=O)c1ccccc1OCc1ccc(F)cc1)c1c(N)n(CC(C)C)c(=O)[nH]c1=O
→ 3.1, 7.7, 0.655, -0.3, 39.1%, -18.2, -3.6
CNC(=O)n1cc(C)c(-c2cccs2)n1
→ 5.7, -6.4, 0.681, 0.1, -11.0%, -4.2, 1.1
COc1ccc(C(=O)c2ccc(OC)c3cccc(O)c23)cc1OC
→ 1.0, -1.8, 0.689, 0.0, 13.1%, 5.2, 0.9
O=S(=O)(c1ccc(N2CCCCCC2)nc1)N1CCCC1
→ -1.7, -2.7, 0.646, 0.2, 6.7%, -10.3, -0.8
Cc1ccc(NC(=S)N=Nc2c(O)n(C)c3ccc(S(=O)(=O)N4CCOCC4)cc23)cc1
→ 10.8, -0.8, 0.759, ., ., 4.4, .
Cc1ccc(C)c(NC(=O)CN(C)C(=O)Cn2c(=O)oc3ccccc32)c1
→ 2.2, 10.2, 0.667, 0.6, 6.2%, -0.2, -0.1
COc1cccc(N2C(=O)CC(N3CCc4ccccc43)C2=O)c1 (stereo not given)
→ 0.7, 1.1, 0.705, -0.4, -3.6%, -1.6, 5.8
Cc1ccccc1NC(=O)N1c2ccccc2CC1C (stereo not given)
→ ., -0.2, ., -0.4, ., -3.4, 53.5*
Cc1ccc(-n2c(SCC(=O)N3CCOCC3)nnc2-c2ccncc2)cc1
→ 2.5, -1.2, 0.684, 0.1, -2.7%, 2.6, 3.3
CCOC(=O)c1cn2nc(Oc3ccc(C(=O)OC)cc3)ccc2n1
→ -99.5, -2.0, 0.671, -0.3, 7.0%, -1.1, -5.7
CN(Cc1ccccc1)C(=O)COC(=O)c1ccc2ccccc2n1
→ -0.3, -0.2, 0.662, 0.5, -6.5%, 3.2, -0.7
O=C(O)CCSc1nnc(-c2ccncc2)n1-c1ccccc1
→ 0.4, 1.2, 0.713, 1.4, 22.6%, -2.4, -2.9
CCOC(=O)c1nnn(-c2nc(OC)nc(N(C)C)n2)c1-c1ccccc1
→ 4.5, 1.2, 0.747, 0.4, 9.4%, 0.0, -14.6
COc1ccc(OC)c(-c2nnc(NC(=O)C(C)Sc3nncn3C)s2)c1 (stereo not given)
→ -1.5, -1.7, 0.666, 0.6, -1.5%, -1.8, 2.4
CS(=O)(=O)NN1C(=O)c2ccccc2NC1c1ccccc1 (stereo not given)
→ -304.8, 2.4, 0.696, 0.6, -0.3%, -0.2, 2.2
O=S(=O)(c1ccc(Cl)c2ccccc12)N1CCCC1
→ 2.6, 4.1, 0.741, 0.2, -3.5%, 3.2, 0.4
COc1cc(Br)cc(C=Nc2cccc(C(F)(F)F)c2)c1O
→ 4.3, 1.5, 0.672, -0.3, -0.1%, 24.7, -5.0
CCNC(=S)Nc1cc(OCC)c(NC(=O)c2ccco2)cc1OCC
→ 1.3, -0.6, 0.691, 0.3, 1.9%, -16.8, -5.1
Cc1onc(-c2ccccc2Cl)c1C(=O)NCc1ccc(N2CCCC2=O)cc1
→ -2.2, -1.4, 0.707, 0.0, ?, 1.9, -3.5
COc1ccccc1/C=C\C=N\n1c(C2CCCCC2)n[nH]c1=S
→ ., -0.3, ., -0.3, 0.0%, 7.0, 3.6
CCC(=O)c1c(CC)c2n3c1CC[C@H]3CCC2
→ 3.9, -3.0, ., 0.4, ., -11.0, 0.9
COCCN(C/C=C/c1ccccc1)C/C=C/c1ccccc1
→ 3.2, -2.2, 0.589, 0.0, -9.7%, 0.1, -2.8
COc1ccc([N+](=O)[O-])cc1NC(=O)CC(C)c1ccccc1 (stereo not given)
→ 3.6, -3.8, 0.726, 0.6, 1.5%, -7.9, -4.3

(more compounds)
Screens in order: UCH37 inh, HNF4A DNA FP, Ecoli growth, A1 inh, Vif A3G, Beta2AR agonist, LANA-H2B inh
CC1CN(C(=O)CN(C)S(=O)(=O)c2ccc3ccccc3c2)CC(C)O1 (stereo not given)
→ 2.3, 0.9, 0.68, 0.4, -0.8%, 3.9, -2.1
C/C(=N\NC(=O)c1ccc(Cl)c(Cl)c1)c1ccc(Br)s1
→ ., -4.1, ., -1.0, 17.1%, -5.2, 3.7
CC1(C)CC2CC(C)(CN2Cc2c(O)ccc3ccccc23)C1 (stereo not given)
→ -26.0, 1.1, 0.651, 0.2, -0.4%, -4.0, 7.2
CC(c1ccccc1)C(OC(=O)c1cccc([N+](=O)[O-])c1C(=O)O)c1ccccc1 (stereo not given)
→ 5.1, 1.4, 0.677, ., -1.3%, -4.7, .

Screening data deposited in PubChem by several laboratories.
